gsp antagonist = antagonists of gsp mutant (McCune-Albright syndrome) | gsp-mutant cells, cAMP HTRF, 30 min; control for the full effect not named in the record | Potency, µM (top dose mostly 76.9 µM), inactives show at the top dose activity change, negative = inhibition, hits mostly inhibitors | 340,000 tested, 0.4% active | AID 624288; active = falling curve of any shape with a large fitted effect; inconclusive = falling curve, mostly with a smaller effect; inactive = flat or rising curve; cell line not stated here;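 further: intracellular cAMP measured with PDE inhibitor Ro 20-1724 present during compound exposure; potency means the concentration at half of the fitted maximal effect; on the % scale 0 is the no-effect control and ±100 the full control effect; nearly all actives have a fitted effect of over 65% in size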
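G418-selected cells were plated in DMEM/10% FBS for 16-24 h at 37C, then treated with compounds plus the PDE inhibitor […] (300 uM solution added) for 30 min at 37C. Intracellular cAMP was measured by HTRF after 30 min lysis at room temperature.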
Menin-MLL FL inh = displaces fluorescein MLL peptide from human menin; Fluorescence polarization, fluorescein-MLL peptide displacement from menin; FP activity change, % at 61.4 µM; 290,000 tested, under 10 active; inconclusive = falling polarisation curve, or a change in total fluorescence; inactive = total fluorescence flat and polarisation flat or rising; no compound was filed as active; the % refers to the polarisation; negative = inhibition;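 further: % of control where 0% means no effect; inhibitors lower the polarisation; unlabelled MLL peptide was the positive control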
TRPV1 potentiator = enhances activation of the human vanilloid receptor TRPV1; potentiation, % at 8.33 µM; AID 540277; 320,000 tested, 0.02% active; TRPV1-expressing cells, Fluo-8 calcium influx, capsaicin EC20 potentiation; host cell line not named in the record; control for the full effect not named in the record; active means potentiation above 80%; inconclusive means 30% to 80%; inactive means below 30%; further: 0% is about no effect
Target sequence (Q8NER1 whole entry, looked up): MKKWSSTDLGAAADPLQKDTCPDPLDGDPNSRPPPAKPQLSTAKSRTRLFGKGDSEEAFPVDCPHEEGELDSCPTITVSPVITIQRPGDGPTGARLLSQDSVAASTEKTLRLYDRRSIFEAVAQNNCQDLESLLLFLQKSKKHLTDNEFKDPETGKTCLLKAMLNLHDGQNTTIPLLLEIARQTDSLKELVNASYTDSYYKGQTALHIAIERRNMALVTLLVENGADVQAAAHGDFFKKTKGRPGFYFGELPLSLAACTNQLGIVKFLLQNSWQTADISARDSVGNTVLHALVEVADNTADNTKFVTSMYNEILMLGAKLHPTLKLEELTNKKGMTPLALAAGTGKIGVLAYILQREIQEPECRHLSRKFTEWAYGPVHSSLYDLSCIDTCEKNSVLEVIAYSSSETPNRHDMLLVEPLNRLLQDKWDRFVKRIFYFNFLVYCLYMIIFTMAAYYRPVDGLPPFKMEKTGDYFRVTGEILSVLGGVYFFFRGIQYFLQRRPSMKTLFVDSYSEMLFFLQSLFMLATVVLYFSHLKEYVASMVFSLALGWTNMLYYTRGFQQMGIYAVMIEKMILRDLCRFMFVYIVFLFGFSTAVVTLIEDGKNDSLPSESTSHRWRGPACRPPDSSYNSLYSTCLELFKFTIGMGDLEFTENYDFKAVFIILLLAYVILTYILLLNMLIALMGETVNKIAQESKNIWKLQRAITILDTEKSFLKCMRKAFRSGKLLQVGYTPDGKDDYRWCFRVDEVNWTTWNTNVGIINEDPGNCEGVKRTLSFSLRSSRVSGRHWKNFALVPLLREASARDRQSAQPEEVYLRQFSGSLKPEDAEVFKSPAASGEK
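TRPV1-expressing cells were cultured overnight at 35.5C and loaded with Fluo-8 calcium dye for 40 to 90 min at room temperature. After a 10 s baseline, compound was added and calcium influx was read kinetically for 3 min (ex 480/em 520 nm).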
gsp agonist = agonists of gsp mutant (McCune-Albright syndrome); 340,000 tested, 0.13% active; gsp mutant cells, cAMP HTRF, 30 min; control for the full effect not named in the record; Potency, µM (series often up to 76.9 µM), for the others: at the top dose activation (cAMP increase), usual class: activators; active = well fitted activation curve with a large enough effect; inconclusive = small, poorly fitted or top-dose-only effect, or another doubt; inactive = no such curve, though single readings can be large or run the other way; cell line not stated here;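 further: phosphodiesterase inhibitor Ro 20-1724 added with compounds to block cAMP breakdown; potency means the concentration at half of the fitted maximal effect; nearly all actives have a fitted effect of over 60% in size; about a fifth of the inactives were tested at one dose only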
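Cells stably selected in G418 were plated at 2000/well, grown 16-24 hr, then given compounds in DMSO with the PDE inhibitor […] (300 uM solution added) for 30 min at 37C; cAMP was read by HTRF.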
CtBP-E1A inh = CtBP/E1A binding inhibition; AID 651724; AlphaScreen GST-E1A/His-CtBP binding, 1536-well; active compounds read low; control for the full effect not named in the record; 340,000 tested, 0.49% active; activity change, % (test concentration not listed); in the data active means activity change below about -65%; inconclusive means about -30% to -65%; inactive means above about -30%; further: on the % scale 0 is the no-effect control and ±100 the full control effect
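AlphaScreen with 125 nM GST-E1A and 125 nM His-CtBP (5X stocks) in Tris pH 8.0, 300 mM NaCl, BSA, Tween 20, TCEP. Compounds preincubated 2 h at 37 deg C, then glutathione donor/nickel acceptor beads added for 1 h at 37 deg C in dark.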
Sfp PPTase inh = blocks B. subtilis Sfp PPTase activity. Biochemical Sfp PPTase activity, qHTS. Potency, µM, for inactives: max response, negative = inhibition, most hits filed as inhibitors. 310,000 tested, 3.5% active. AID 1490; active means well fitted inhibition curve with a large enough effect; inconclusive means small, poorly fitted or top-dose-only effect, or another doubt; inactive means no such curve, though single readings can be large or run the other way;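 further: the enzyme is Sfp with the accession as filed and its product quenches rhodamine fluorescence; potency means the concentration at half of the fitted maximal effect; 0% = enzyme reaction without inhibitor and -100% = no enzyme wells; top concentration of the series not given in the record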
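Sfp 15 nM + cpd, 15 min RT; start w/ rhodamine-CoA 5 uM, BHQ-2-YbbR 12.5 uM (final); 50 mM Hepes pH 7.6, 10 mM MgCl2, 0.01% NP-40, 0.01% BSA; read 525/598 nm at 0 and 30 min.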
ClpP mod = qHTS Assay for Activators of ClpP; ATP-dependent Clp protease proteolytic subunit (Bacillus subtilis (strain 168)), P80244; 340,000 tested, 1.9% active; purified B. subtilis ClpP, FRET peptide cleavage, 20 min; Potency, µM (top dose mostly 57.5 µM), without a hit: at the top dose activity change, negative = active; active = well fitted falling curve with a large enough effect; inconclusive = small, poorly fitted or top-dose-only effect; inactive = no such curve, though single readings can be large or run the other way; further: potency means the concentration at half of the fitted maximal effect; the source files actives as falling curves though it sought activators and does not explain the sign; nearly all actives have a fitted effect of over 65% in size; many hits overshoot -100%
Target sequence (P80244 whole entry, looked up): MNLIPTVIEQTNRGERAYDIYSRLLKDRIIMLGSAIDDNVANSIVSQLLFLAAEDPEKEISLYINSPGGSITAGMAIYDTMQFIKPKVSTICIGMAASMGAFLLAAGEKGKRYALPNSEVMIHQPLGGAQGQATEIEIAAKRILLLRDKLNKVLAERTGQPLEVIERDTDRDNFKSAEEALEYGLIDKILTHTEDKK
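Buffer: 100 mM Tris/HCl pH8, 100 mM KCl, 0.05% low protease BSA, 2.5% glycerol, 0.01% Tween-20. ClpP 10 microg/mL final; 20 min RT; delta FRET normalized to ADEP and DMSO controls.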
* = called active by the depositor; ? = inconclusive; . = no result given; & = joins results of further samples; [ ] = another dose, or the depositor's remark.

SMILES	gsp agonist	TRPV1 potentiator	Menin-MLL FL inh	gsp antagonist	Sfp PPTase inh	CtBP-E1A inh	ClpP mod
O=C(COc1c(F)c(F)cc(F)c1F)NC(=O)NC1CCCC1	-8%	8	1.8	9%	4%	-2	-2.6%
COCCCNC(=S)Nc1c(C)cc(C)cc1C	20%[15.4 µM]	-5	-1.0	7%	13%	9	.
Cc1ccccc1C(=O)Nc1cc(C(F)(F)F)ccc1-n1cncn1	-3%	-13	.	2%	.	.	-1.3%
O=C(Cn1c2ccccc2c2nc3n(c(=O)c21)CCS3)Nc1ccccc1	15%	?	.	17%	-14%	.	3.8%
CCCn1nnnc1NCc1ccccc1F	-16%	1	1.6	8%	22%	0	.
O=C(Nc1cc(S(=O)(=O)N2CCOCC2)ccc1N1CCOCC1)c1cc2c(s1)CCC2	-13%[15.4 µM]	-7	4.6	-31%	7%	1	.
COc1ccc(N(C(C)C(=O)N/N=C/c2cc(Br)c(C)o2)S(C)(=O)=O)cc1 (stereo not given)	6%	3	-5.0	-10%	5%	-6	-0.2%
O=C(Cc1ccc(NC(=O)C2CCN(C(=O)C3CCCCC3)CC2)cc1)Nc1cccc(C(=O)N2CCCCC2)c1	.	.	.	6%	.	2	0.3%
CS(=O)(=O)N1CCC(Oc2ccccc2C(=O)NC(C2CC2)C2CC2)CC1	10%[15.4 µM]	-7	3.6	-1%	7%	-11	-1.3%
COc1ccc(OC)cc1	.	.	.	15%	.	0	-0.7%&1.2%
O=C(COC(=O)c1ccc(Br)o1)Nc1ccc(F)cc1[N+](=O)[O-]	-17%	.	.	6%	.	.	1.3%
O=C(CCCCCn1c(=O)[nH]c2ccsc2c1=O)N1CCCCC1	8%	11	2.8	-6%	5%	-3	-4.5%
O=C(O)c1ccc(C(=O)c2cc([N+](=O)[O-])cc([N+](=O)[O-])c2)cc1	1%	.	.	-8%	.	0	.
S=C(NCc1ccc2c(c1)OCO2)NCc1ccc2c(c1)OCO2	-2%[15.4 µM]	-1	5.1	-3%	10%	5	0.8%
CCN(c1ccccc1)S(=O)(=O)c1ccc(Cl)c(NC(=O)COC(=O)c2cccc(OC)c2O)c1	-16%	21	2.0	-9%	-3%	8	-0.8%
O=C1c2ccccc2C(=O)C1c1ccc2ccccc2n1	1%	-6	1.4	-18%	3%	1	-0.4%&1.2%&-1.4%
Cc1nc(NS(=O)(=O)c2ccccc2)sc1C(=O)NNS(=O)(=O)c1ccccc1	7%	14	-4.8	-5%	-18%	-1	.
O=[N+]([O-])c1ccc(S(=O)(=O)Nc2nnc(C3CCCCC3)s2)cc1	?	7	-4.5	?	30%	-3	.
O=C(COC(=O)/C=C/c1cccc([N+](=O)[O-])c1)Nc1cccnc1Cl	0%[15.4 µM]	.	.	-5%	.	0	0.4%
CCN(CC)CCNC(=O)CCc1c(C)nc2c(c(C)nn2-c2ccc(C)cc2)c1C	?	9	1.0	21%	-5%	-2	3.4%
N#Cc1c(N2CCCC2)nsc1-c1ccccc1	?	-13	6.9	-12%	9%	-16	-4.9%
COc1cc(S(=O)(=O)Nc2cccc(C)c2)ccc1NC(=O)c1ccncc1	-1%	-4	11	-5%	-4%	-9	-2.8%
CCn1c(O)c(/C=C2\C=NN=C2c2ccc(C)cc2)sc1=S	-1%[15.4 µM]	-12	.	4%	2%	-4	.
CCOC(=O)C1=NNC(=O)C1	-2%[15.4 µM]	.	.	1%	.	-3	1.7%
CCn1ncc(NC(=O)Nc2cccc(C(F)(F)F)c2)c1C(N)=O	6%	19	0.3	-3%	2%	1	-3.4%
O=C(CN1CCCCCC1)N/N=C/c1ccc(Cl)c(Cl)c1	1%	-7	-1.7	13%	-23%	-12	-0.9%
COc1ccc(-c2nc(Cn3c(SCc4cccc(F)c4)nc4ccncc43)c(C)o2)cc1OC	-2%	28	1.3	-16%	?	-6	-4.7%
Cc1ccc(-c2nc(C#N)c(NCc3ccco3)o2)cc1	17%	1	2.9	8%	2%	-2	20µM*
CN(C)CCCNc1oc(-c2ccc(Cl)cc2)nc1S(=O)(=O)c1ccccc1	-63%[inhibitor]	.	.	6%	.	-8	-1.7%
O=C(Nc1ccc(Cl)cc1)Nc1nc(-c2ccccc2O)cs1	-6%	6	-0.8	-6%	-3%	4	-1.4%
COc1cc(OC)cc(-c2c(C#Cc3ccsc3)c3cc(-c4ccc(OC)nc4)ccc3n2C)c1	7%	-2	.	1%	.	-20	3.8%
O=C(Nc1ccccc1C(F)(F)F)c1cc(-c2ccco2)on1	20%	-4	0.5	6%	12%	-10	.
CC(C)CCN1CCC(CN2C(=S)NC[C@@H]2Cc2ccccc2)CC1	.	.	.	9%	.	4	1.2%
CCN1CCN(S(=O)(=O)c2ccc(Cl)c(C(=O)NC3CCCCC3)c2)CC1	-1%[15.4 µM]	2	.	8%	.	11	?
O=C1c2ccccc2NC(c2cccc(O)c2)N1O (stereo not given)	9%	?	1.6	-4%	-13%	-7	-1.5%
CCCCN=C1NN=C(c2cc3ccccc3o2)CS1	21%[15.4 µM]	9	-1.0	-4%	-14%	-22	.
CC(OC(=O)CNC(=O)c1ccc(Br)cc1)C(=O)NC1CCCCC1C (stereo not given)	2%	-6	.	2%	.	.	-0.8%
CCOc1ccc(NS(=O)(=O)c2ccc(Cl)c(N=Nc3c(O)[nH]c(=S)[nH]c3=O)c2)cc1Br	-31%	.	.	.	.	-13	0.8%
S=C1NC[C@H](Cc2ccccc2)N1CCc1cccc2ccccc12	.	1	4.4	-6%	2%	2	-2.3%
O=C1c2cnc3nc(SCc4cccc(Cl)c4)nn3c2CC2c3ccccc3CCN12 (stereo not given)	-16%	2	2.8	-2%	-3%	9	?
Cc1ccc(S(=O)(=O)N2CCN(C(=O)COC(=O)CSc3ccc(C)c(C)c3)CC2)c(C)c1	-17%[15.4 µM]	27	.	5%	.	-3	.
O=C(CN1C(=O)c2ccccc2C1=O)Nc1cccc(Cl)c1	-12%	-2	3.0	3%	-3%	-3	.
Cc1n[nH]c(=S)n1Cc1ccccc1	-7%	?	6.0	24%	-1%	11	0.0%
Cc1ccc([N+](=O)[O-])cc1S(=O)(=O)N1CCCN(C)CC1	12%	-8	-0.5	3%	16%	4	.
CNC(=O)c1cccc(NC(=O)c2cc(-c3ccccc3)nc3c2cnn3C(C)C)c1	-148%[inhibitor]	-4	.	-17%	.	-7	-19%
CS(=O)(=O)c1ccccc1C(=O)Nc1cc(Cl)ccc1-n1cncn1	11%	0	.	12%	.	-1	-0.7%
c1cn2cc(CSC3CCCCC3)nc2s1	29%	12	-8.3	-1%	3.2µM*	-4	-0.3%
COc1ccc(Cl)cc1N(C(=O)c1ccco1)C(C(=O)NC1CCCC1)c1ccco1 (stereo not given)	22%[15.4 µM]	2	8.0	-9%	15%	-7	.
S=C(NCCc1c[nH]c2ccccc12)NC1CCCC1	-1%	-14	5.7	3%	34%[activator]	5	.
O=C(NCCN1CCOCC1)/C(=C\c1ccc(Br)cc1)NC(=O)c1cccs1	9%	3	2.1	18%	11%	0	0.6%
CCN(CC)c1nc(C)c(C(=S)Nc2cc([N+](=O)[O-])ccc2Cl)s1	4%[15.4 µM]	8	?	1%	-18%	-9	.
CCC(C)C(NC(=O)c1ccccc1)C(=O)N1CCN(C(=O)c2ccccc2)CC1 (stereo not given)	-45%[inhibitor]	.	.	.	.	1	0.5%
CCC(c1nnnn1Cc1ccc(F)cc1)N1CCN(C2CCCCC2)CC1 (stereo not given)	15%	8	.	5%	3%	-10	-2.7%
N#CCCN(C(=S)Nc1ccc(Cl)c(Cl)c1)C1CCCCC1	22%	.	.	.	.	0	-3.3%
Cc1ccccc1NC(=O)CN1C(=O)N/C(=C\c2ccccc2OCc2ccc(C(=O)O)cc2)C1=O	1%[15.4 µM]	5	-8.2	1%	-5%	-4	.
O=C1CC(c2cc(Br)ccc2F)c2cc3c(cc2N1)CCC3 (stereo not given)	-4%	-3	-1.0	2%	3%	3	1.2%
Cc1onc(-c2c(F)cccc2Cl)c1C(=O)Nc1sc2c(c1C#N)CCC(C(C)(C)C)C2 (stereo not given)	7%	5	?	-34%	0%	-5	?
CCOC(=O)C1(C)NC(c2ccc(N(C)C)cc2)C2C(=O)N(c3ccc(OC)cc3)C(=O)C21 (stereo not given)	-1%	10	-0.3	-2%	20%	1	0.1%
Cc1c(C(=O)Nc2ccccc2)c2ccc(C(F)(F)F)cc2n1O	-8%[15.4 µM]	.	.	-15%	.	-2	.
O=C(CNC(=O)c1ccccc1F)NCCCN1CCCC1=O	-14%[15.4 µM]	0	.	21%	.	7	2.2%

The results go on:
SMILES	gsp agonist	TRPV1 potentiator	Menin-MLL FL inh	gsp antagonist	Sfp PPTase inh	CtBP-E1A inh	ClpP mod
CCOc1cc(/C=N/NC(=O)c2ccccc2OCc2ccc(F)cc2)ccc1O	?	-6	.	35µM*	.	?	-22%
N#C/C(=N\Nc1ccc([N+](=O)[O-])cc1)C(=N)N1CCOCC1	10%[15.4 µM]	?	-0.6	?	6%	-12	-0.1%
O=C(OCC1CC(c2ccccn2)=NO1)c1ccc(Br)cc1 (stereo not given)	2%	-3	3.7	-7%	-12%	6	-0.4%
O=C1NN(c2ccccc2)C(=O)/C1=C\c1coc2ccc(O)cc2c1=O	8%	17	20	-5%	79µM*	-10	-0.2%
